UUG fidelity = yeast start codon fidelity modulation; AID 602363; S. cerevisiae UUG-firefly luciferase reporter, luminescence/redox ratio; actives 0.13% (n = 350,000); activity score, % at 18.7 µM;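 active = replicate mean at a twofold rise or more, about +100% in these data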;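 note: firefly luciferase made from a UUG start codon reports start codon fidelity; reporter light over untreated wells divided by growth signal over untreated wells; some hits fall short of that in this replicate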
Numbers without * were called inactive.

UUG fidelity	Compound
5.8	COCC(=O)Nc1ccc2c(c1)OC[C@H](C)N(C(=O)COC)C[C@@H](C)[C@H](OC)CN(C)C2=O
10.3	O=C(Nc1ccccc1F)N1CCCCN2[C@H](CO)[C@H](c3ccc(C#Cc4cccnc4)cc3)[C@H]2C1
-6.4	CNC[C@@H]1Oc2c(NC(=O)c3cc(C)nn3C)cccc2C(=O)N([C@H](C)CO)C[C@H]1C
-0.7	CN1C[C@@H]2[C@H](c3ccccc31)[C@H](CO)N2Cc1ccccc1
-12.0	COc1ccccc1CNC(=O)C[C@@H]1CC[C@H]2[C@H](COc3ccc(NC(=O)Nc4ccc(F)c(F)c4)cc3C(=O)N2C)O1
-0.2	COc1ccccc1-c1ccc2c(c1)[C@H]1[C@H](CCN1C(=O)C1CC1)[C@@H](CO)N2
-11.6	C[C@H](CO)N1C[C@H](C)[C@H](CN(C)C(=O)Nc2cccc3ccccc23)Oc2c(NC(=O)c3nc4ccccc4s3)cccc2C1=O
-12.4	CN1c2ccc(-c3cccc(F)c3)cc2[C@@H]2[C@@H](CCN2C(=O)c2ccccc2F)[C@H]1CO
27.8	O=C(C[C@@H]1CC[C@H]2[C@@H](COC[C@H](O)CN2C(=O)Nc2cccc(F)c2)O1)NCc1ccccc1F
-2.5	CCC(=O)N1CCCCN2[C@H](CO)[C@H](c3ccc(-c4cccc(C#N)c4)cc3)[C@H]2C1
-7.4	CN1C(=O)c2cc(NC(=O)c3cccs3)ccc2OC[C@@H]2O[C@@H](CC(=O)O)CC[C@H]21
1.0	CN1C(=O)c2cc(NC(=O)c3cccs3)ccc2OC[C@H]2O[C@H](CC(=O)O)CC[C@@H]21
13.2	COc1ccc(S(=O)(=O)N(C)C[C@@H]2Oc3ccc(NC(=O)Nc4c(C)noc4C)cc3C(=O)N([C@@H](C)CO)C[C@@H]2C)cc1
7.7	C[C@@H]1CN([C@H](C)CO)C(=O)c2cccc(NS(=O)(=O)c3ccccc3)c2O[C@@H]1CN(C)Cc1ccc2c(c1)OCO2
4.0	O=C(Nc1ccccc1)N1CCCCN2[C@H](C1)[C@@H](c1ccc(C#Cc3ccccc3)cc1)[C@@H]2CO
-0.4	C[C@@H]1CN([C@H](C)CO)C(=O)c2cccc(NS(C)(=O)=O)c2O[C@H]1CN(C)S(=O)(=O)c1ccc(Cl)cc1
7.0	C[C@H]1CN([C@@H](C)CO)C(=O)c2cccc(N(C)C)c2O[C@@H]1CN(C)S(=O)(=O)c1ccc(Cl)cc1
1.8	CN(C)CC#Cc1ccc([C@H]2[C@@H](CO)N3CCCCN(C(=O)NC4CCCC4)C[C@@H]23)cc1
-15.9	O=C(C[C@@H]1CC[C@H]2[C@@H](COC[C@@H](O)CN2S(=O)(=O)c2cccc(F)c2)O1)NCCCN1CCOCC1
8.3	C[C@H](CO)N1C[C@H](C)[C@@H](CN(C)Cc2ccc(C(F)(F)F)cc2)Oc2c(NC(=O)C3CCCCC3)cccc2C1=O
-0.6	C[C@@H]1CN([C@@H](C)CO)C(=O)c2cc(NC(=O)Nc3ccccc3)ccc2O[C@H]1CN(C)S(=O)(=O)c1ccc(Cl)cc1
-3.8	O=C(c1ccc(F)cc1)N(CC1CCC1)C[C@@H]1N[C@H](CO)[C@@H]1c1ccccc1
-15.0	COc1ccc(-c2ccc([C@@H]3[C@@H](CO)N4CCCCN(C(=O)NC(C)C)C[C@@H]34)cc2)cc1
-26.4	O=C(Cc1ccccc1)N1CC[C@@H]2[C@H](CO)Nc3ccc(C#Cc4ccccc4)cc3[C@@H]21
-11.0	CN1c2ccc(-c3cccc(F)c3)cc2[C@@H]2[C@@H](CCN2S(=O)(=O)c2cccc(F)c2)[C@H]1CO

Shown with tabs: part of the list above
Compound	UUG fidelity
COCC(=O)Nc1ccc2c(c1)OC[C@H](C)N(C(=O)COC)C[C@@H](C)[C@H](OC)CN(C)C2=O	5.8
O=C(Nc1ccccc1F)N1CCCCN2[C@H](CO)[C@H](c3ccc(C#Cc4cccnc4)cc3)[C@H]2C1	10.3
CNC[C@@H]1Oc2c(NC(=O)c3cc(C)nn3C)cccc2C(=O)N([C@H](C)CO)C[C@H]1C	-6.4
CN1C[C@@H]2[C@H](c3ccccc31)[C@H](CO)N2Cc1ccccc1	-0.7
COc1ccccc1CNC(=O)C[C@@H]1CC[C@H]2[C@H](COc3ccc(NC(=O)Nc4ccc(F)c(F)c4)cc3C(=O)N2C)O1	-12.0
COc1ccccc1-c1ccc2c(c1)[C@H]1[C@H](CCN1C(=O)C1CC1)[C@@H](CO)N2	-0.2
C[C@H](CO)N1C[C@H](C)[C@H](CN(C)C(=O)Nc2cccc3ccccc23)Oc2c(NC(=O)c3nc4ccccc4s3)cccc2C1=O	-11.6
CN1c2ccc(-c3cccc(F)c3)cc2[C@@H]2[C@@H](CCN2C(=O)c2ccccc2F)[C@H]1CO	-12.4
O=C(C[C@@H]1CC[C@H]2[C@@H](COC[C@H](O)CN2C(=O)Nc2cccc(F)c2)O1)NCc1ccccc1F	27.8
CCC(=O)N1CCCCN2[C@H](CO)[C@H](c3ccc(-c4cccc(C#N)c4)cc3)[C@H]2C1	-2.5

Other entries.
UUG fidelity	Compound
2.7	CO[C@@H]1CN(C)C(=O)c2cc(NC(=O)c3ccccc3)ccc2OC[C@@H](C)N(C(C)=O)C[C@H]1C
15.3	C/C=C/c1ccc([C@@H]2[C@@H](CN(C)C(=O)CC3CC3)N(C(=O)C3CC3)[C@H]2CO)cc1
-16.7	O=C([C@H]1[C@H](CO)[C@H]2Cn3c(ccc(-c4cccnc4)c3=O)[C@@H]1N2Cc1cccnc1)N1CCOCC1
31.8	C[C@H]1CN([C@@H](C)CO)C(=O)c2cc(NC(=O)c3ccncc3)ccc2O[C@H]1CN(C)S(=O)(=O)c1ccc(Cl)cc1
11.0	O=C(NCC1CCCCC1)[C@H]1N[C@H]2c3ccc(C4=CCCCC4)c(=O)n3C[C@H]2[C@@H]1CO
26.4	O=C(Nc1ccccc1)N1CCCCN2[C@H](CO)[C@@H](c3ccc(C4=CCCCC4)cc3)[C@H]2C1
15.2	Cc1ccccc1-c1ccc([C@H]2[C@@H](CO)N3CCCCN(C(=O)NC4CCCC4)C[C@H]23)cc1
-0.5	Cc1noc(C)c1NC(=O)Nc1ccc2c(c1)C(=O)N([C@H](C)CO)C[C@H](C)[C@H](CN(C)Cc1ccc(C(=O)O)cc1)O2
1.3	CCCNC(=O)C[C@H]1CC[C@@H]2[C@H](COC[C@H](O)CN2Cc2ccncc2)O1
-6.7	Cc1ccc(S(=O)(=O)N(C)C[C@@H]2Oc3ccc(NC(=O)Cn4cnnn4)cc3C(=O)N([C@@H](C)CO)C[C@@H]2C)cc1
13.3	CO[C@H]1CN(C)C(=O)c2cc(NS(=O)(=O)c3cccc(F)c3)ccc2OC[C@@H](C)N(Cc2cc(F)ccc2F)C[C@H]1C
4.2	COc1cccc(C(=O)N2C[C@@H]3[C@H](c4ccccc42)[C@H](CO)N3C(=O)c2ccccc2)c1
10.7	Cc1ccc(OC(=O)N(C)C[C@H]2OCc3ccccc3-c3ccccc3C(=O)N([C@H](C)CO)C[C@@H]2C)cc1
5.4	CCN(C[C@@H]1[C@@H](c2ccccc2)[C@H](CO)N1C(C)=O)C(=O)NC(C)C
30.4	CN1c2ccc(-c3ccccc3)cc2[C@H]2[C@H](CCN2C(=O)Cc2cccnc2)[C@H]1CO
-6.7	CN(C)CCCNC(=O)C[C@H]1CC[C@H]2[C@@H](COC[C@H](O)CN2S(=O)(=O)c2ccc(F)cc2)O1
-5.7	COc1cccc(C(=O)Nc2ccc3c(c2)C(=O)N(C)[C@@H]2CC[C@@H](CC(=O)N[C@@H](C)c4ccccc4)O[C@@H]2CO3)c1
-2.0	COCC(=O)N1CC[C@@H]2[C@@H](CO)N(C)c3ccc(-c4cccc(OC)c4)cc3[C@@H]21
7.6	CO[C@H]1CN(C)C(=O)c2cc(NC(=O)c3cc(C)on3)ccc2OC[C@H](C)N(C(C)=O)C[C@H]1C
-1.9	CC(=O)NC[C@@H]1[C@H](c2ccc(-c3ccccc3)cc2)[C@@H](CO)N1C(=O)C1CC1
4.0	C[C@@H]1CN([C@H](C)CO)C(=O)c2cccc(NS(C)(=O)=O)c2O[C@@H]1CN(C)S(=O)(=O)c1cccs1
-10.7	CCCC(=O)Nc1ccc2c(c1)C(=O)N(C)C[C@H](OC)[C@H](C)CN(S(=O)(=O)c1cn(C)cn1)[C@@H](C)CO2
5.5	CCS(=O)(=O)N1CCCCN2[C@H](CO)[C@@H](c3ccc(-c4ccccc4C)cc3)[C@H]2C1
-4.7	CN(C)C(=O)c1cccc(-c2ccc3c(c2)[C@H]2[C@H](CCN2Cc2ccccc2F)[C@@H](CO)N3)c1
3.0	COc1ccc(NC(=O)Nc2cccc3c2O[C@@H](CN(C)CC2CCCCC2)[C@H](C)CN([C@@H](C)CO)C3=O)cc1

Continued.
UUG fidelity	Compound
57.5	COc1cccc(CN2[C@H](CO)[C@H]3c4ccccc4N(C(=O)c4cccnc4)C[C@H]32)c1
4.8	COCCNC[C@H]1[C@@H](c2ccccc2)[C@@H](CO)N1c1nc(C)c(C)s1
1.5	CCN1[C@H](C(=O)NCCc2cn(C)cn2)[C@@H](CO)[C@@H]2Cn3c(ccc(-c4ccccc4)c3=O)[C@@H]21
-11.6	COc1ccc(CN(C)C[C@@H]2Oc3ccc(NS(C)(=O)=O)cc3C(=O)N([C@@H](C)CO)C[C@H]2C)cc1
-1.8	C[C@@H]1CN([C@H](C)CO)C(=O)c2cccc(NS(=O)(=O)c3cn(C)cn3)c2O[C@H]1CN(C)Cc1ccc(Oc2ccccc2)cc1
-0.6	O=S(=O)(Cc1ccccc1)N1CCCCN2[C@H](C1)[C@@H](c1ccc(-c3ccccc3)cc1)[C@@H]2CO
-8.2	CN(C)CC(=O)Nc1ccc2c(c1)[C@@H]1C[C@@H](CC(=O)NCc3ccc(Cl)cc3)O[C@@H](CO)[C@@H]1O2
17.9	CCC(=O)NC[C@@H]1[C@@H](c2ccc(-c3cccc(F)c3)cc2)[C@H](CO)N1C(=O)CC
12.1	O=C(C[C@@H]1C[C@@H]2c3cc(NS(=O)(=O)c4ccccc4)ccc3O[C@@H]2[C@@H](CO)O1)N1CCCCC1
-19.6	O=C(C[C@H]1CC[C@@H]2[C@H](COC[C@@H](O)CN2C(=O)Nc2ccccc2)O1)NCCc1ccncc1
1.4	COc1cccc(S(=O)(=O)Nc2ccc3c(c2)C(=O)N(C)C[C@@H](OC)[C@H](C)CN(Cc2ccccc2F)[C@@H](C)CO3)c1
-10.0	C[C@H](CO)N1C[C@H](C)[C@H](CN(C)C(=O)Nc2ccc3c(c2)OCO3)Oc2c(NC(=O)c3nc4ccccc4s3)cccc2C1=O
7.6	O=S(=O)(c1cccc(F)c1)N1CC[C@@H]2[C@H](CO)Nc3ccc(-c4cccc(F)c4)cc3[C@@H]21
24.2	O=C(C[C@@H]1C[C@H]2c3cc(NS(=O)(=O)c4ccc(F)cc4)ccc3O[C@H]2[C@H](CO)O1)NCc1ccncc1
14.1	N#Cc1cccc(-c2ccc([C@H]3[C@H]4CN(C(=O)Nc5ccc(F)cc5)CCCCN4[C@H]3CO)cc2)c1
-7.0	CCCNC(=O)C[C@@H]1CC[C@H]2[C@@H](COC[C@@H](O)CN2C(=O)Nc2c(C)noc2C)O1
-4.1	COc1ccc(-c2ccc3c(c2)[C@@H]2[C@@H](CCN2S(=O)(=O)c2ccc(OC)cc2)[C@H](CO)N3)cc1
10.8	C[C@@H]1CN([C@@H](C)CO)C(=O)c2cc(NC(=O)Nc3cccc4ccccc34)ccc2O[C@@H]1CN(C)CC1CCCCC1
7.0	CC(C)NC(=O)N1CCCCN2[C@H](CO)[C@H](c3ccc(C#Cc4ccccc4F)cc3)[C@@H]2C1
-2.2	CO[C@@H]1CN(C)C(=O)c2ccc(NC(C)=O)cc2OC[C@@H](C)N(CC2CCCCC2)C[C@@H]1C
-2.7	O=C(c1ccccc1F)N1C[C@@H]2[C@H](c3ccccc31)[C@H](CO)N2Cc1ccc2c(c1)OCO2
-12.2	COc1cccc(S(=O)(=O)N2CC[C@@H]3[C@H](CO)N(C)c4ccc(C5=CCCCC5)cc4[C@@H]32)c1
3.6	CCCN1C[C@@H](C)[C@H](OC)CN(C)C(=O)c2cc(NS(=O)(=O)CC)ccc2OC[C@@H]1C
-3.4	COc1cccc(S(=O)(=O)N2C[C@@H](O)COC[C@H]3O[C@@H](CC(=O)N4CCCCC4)CC[C@@H]32)c1
0.9	Cc1ccccc1S(=O)(=O)N1CCCCN2[C@H](CO)[C@H](c3ccc(C#CCN(C)C)cc3)[C@@H]2C1

Next part:
UUG fidelity	Compound
8.0	COc1ccccc1CNC(=O)C[C@@H]1CC[C@@H]2[C@H](COC[C@@H](O)CN2C(=O)Nc2ccc(C(F)(F)F)cc2)O1
-14.3	O=C(Nc1cc(F)ccc1F)N1CCCCN2[C@H](C1)[C@H](c1ccc(-c3cccnc3)cc1)[C@@H]2CO
-1.1	CCN(C[C@@H]1[C@@H](c2ccccc2)[C@@H](CO)N1C(C)=O)C(=O)NC(C)C
13.2	OC[C@@H]1[C@@H](c2ccc(C#CC3(O)CCCC3)cc2)[C@@H]2CN(Cc3ccccc3F)CCCCN12
-9.5	COCC(=O)Nc1ccc2c(c1)C(=O)N(C)C[C@@H](OC)[C@H](C)CN(Cc1ccccc1C(=O)O)[C@H](C)CO2
-5.2	O=C(C[C@@H]1CC[C@H]2[C@@H](COC[C@@H](O)CN2Cc2ccccc2)O1)N[C@H]1CCN(Cc2ccccc2)C1
-7.2	O=C(C[C@@H]1CC[C@H]2[C@@H](COC[C@@H](O)CN2Cc2ccncc2)O1)NCC1CC1
-6.2	COCC(=O)N1CCCCN2[C@H](CO)[C@H](c3ccc(C#Cc4cccnc4)cc3)[C@@H]2C1
23.5	Cc1noc(C)c1S(=O)(=O)Nc1ccc2c(c1)C(=O)N([C@H](C)CO)C[C@@H](C)[C@@H](CN(C)C(=O)Nc1cccc3ccccc13)O2
-9.6	CCNC(=O)C[C@@H]1CC[C@@H]2[C@H](COC[C@@H](O)CN2C(=O)C2CCCC2)O1
7.1	COc1cccc(-c2ccc3c(c2)[C@@H]2[C@@H](CCN2C(=O)c2cnccn2)[C@@H](CO)N3)c1
-7.7	CC(C)NC(=O)Nc1ccc2c(c1)C(=O)N([C@@H](C)CO)C[C@@H](C)[C@H](CN(C)C(=O)NC(C)C)O2

Screens as filed in PubChem.

An excerpt. The share of hits here may be higher or lower than overall.
